# High-throughput results (PubChem BioAssay)
# PD-1 reverse act: activators reversing PD-1 mediated T-cell inhibition, primary screen, luminescence, primary human CD4 T cells, PD-L1 beads. AID 2316, 2010. activation, % (test concentration not listed). CellTiter-Glo 96 h. 29,000 tested, under 10 active;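 active means replicate mean of 50% or more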;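 further: 0% = median vehicle wells and 100% = positive control; 100 nL library stock added to about 50 µL; numbers are from one replicate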
# MITF inhib: inhibitors of MITF, primary screen, MITF inhibitor project, cell-based, luminescence; TRPM1 promoter luciferase, 24 h; inhibition, % (concentration not given with the values); actives 0.28% (n = 37,000);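 active means most replicates at 85% or more, or half of them and the mean; inconclusive means half reach 85% but not the mean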;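 further: human melanocyte line stably carrying TRPM1 promoter luciferase reporter; 0% = vehicle wells and 100% = a positive control; the first replicate is given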
# YB-1 expression: inhibitors of YB-1 gene expression, primary screen, cell-based, fluorescence; actives 0.37% (n = 30,000); U2OS, qRT-PCR YB-1 vs CDIP delta delta Cp, 16 h; active compounds read high; zero = DMSO, each unit about twofold; delta delta Cp (YB-1 minus CDIP) (concentration not given with the values);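 active means delta delta Cp rounded down to an integer at or above 3, about 3 SD of DMSO wells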;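 further: higher means less YB-1 transcript or more CDIP transcript relative to DMSO; stock transfer was 100 nL into about 100 µL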
# Shh pathway inh: Hedgehog pathway signaling inhibitors, primary screen, luminescence, Shh-LIGHT2 cells, Gli-luciferase; Shh-LIGHT2 Gli-luciferase reporter, 30 h; inhibition, % (test concentration not listed); actives 2.1% (n = 22,000); AID 2313, 2010;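 active means replicate mean of 65% or more; inconclusive means mean lower but half the replicates past it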;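 further: pathway switched on by Shh-conditioned medium diluted 1 in 25 in low serum; 100 nL library stock added to about 40 µL; 0% = median of neutral wells and 100% = positive control level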
# * = called active by the depositor; u = inconclusive; x = not tested or not shown. An excerpt; the hit share may differ from the screen's.
SMILES,PD-1 reverse act,MITF inhib,YB-1 expression,Shh pathway inh
C[C@H]1CN([C@@H](C)CO)C(=O)c2cc(NC(=O)Nc3ccccc3)ccc2O[C@H]1CN(C)Cc1ccc(Oc2ccccc2)cc1,0.6,0.1,0.309,32.0
C[C@@H]1CN([C@H](C)CO)C(=O)Cc2cc(NC(=O)C3CCCCC3)ccc2O[C@H]1CN(C)S(=O)(=O)c1cn(C)cn1,x,-6.9,-0.303,31.8
Cc1ccc(S(=O)(=O)Nc2ccc3c(c2)C(=O)N([C@H](C)CO)C[C@@H](C)[C@H](CN(C)S(C)(=O)=O)O3)cc1,1.7,-9.0,0.0522,x
C[C@H]1CN([C@@H](C)CO)C(=O)Cc2cc(NS(=O)(=O)c3cccs3)ccc2O[C@@H]1CN(C)Cc1ccc(-c2ccccc2)cc1,x,23.1,0.0434,-8.3
COc1ccc(NC(=O)Nc2ccc3c(c2)C(=O)N([C@@H](C)CO)C[C@H](C)[C@H](CN(C)Cc2ccc(C(=O)Nc4ccccc4N)cc2)O3)cc1,1.4,-28.2,-0.134,x
CC1(C)CC[C@]2(C(=O)OC3OC(CO)C(OC4OC(CO)C(O)C(O)C4O)C(O)C3O)CC[C@]3(C)C(=CCC4[C@@]5(C)CC[C@H](OC6OC(C(=O)O)C(O)C(O)C6O)C(CO)(CO)C5CC[C@]43C)[C@@H]2C1 (stereo not given in full),0.4,-4.8,-0.103,-22.4
COC(=O)c1ccccc1NC(=O)NC(C)c1cc(OC)ccc1OC (stereo not given),-5.6,5.9,x,x
Cc1noc(C)c1S(=O)(=O)Nc1cccc2c1O[C@H](CN(C)C(=O)Nc1ccc(C(F)(F)F)cc1)[C@H](C)CN([C@H](C)CO)C2=O,-2.9,10.8,0.37,4.1
C[C@@H]1CCCCO[C@H](CN(C)C(=O)CCC(F)(F)F)[C@@H](C)CN([C@H](C)CO)C(=O)c2cc(NC(=O)c3ccncc3)ccc2O1,x,-4.2,-0.188,-8.9
C[C@@H]1CCCCO[C@@H](CN(C)S(=O)(=O)c2ccc(F)cc2)[C@@H](C)CN([C@H](C)CO)C(=O)c2cc(NS(C)(=O)=O)ccc2O1,-1.3,5.5,-0.0614,-28.5
S=c1oc2ccc(Cl)cc2n1Cc1ccccc1,2.0,-59.8,0.0014,-96.2
CC(C)NC(=O)Nc1cccc2c1O[C@H](CN(C)S(=O)(=O)c1ccc(F)cc1)[C@@H](C)CN([C@@H](C)CO)C2=O,0.2,-4.1,-0.39,-25.4
CC(C)NC(=O)Nc1cccc2c1O[C@H](CN(C)C(=O)Nc1ccccc1)[C@@H](C)CN([C@@H](C)CO)C2=O,0.4,0.9,0.241,-18.5
Cc1ccc(S(=O)(=O)Nc2ccc3c(c2)C(=O)N([C@H](C)CO)C[C@H](C)[C@@H](CN(C)C(=O)c2ccccc2)OCCCC[C@@H](C)O3)cc1,x,-1.7,0.185,-23.6
C[C@H]1CN([C@@H](C)CO)C(=O)Cc2cc(NC(=O)C3CCCCC3)ccc2O[C@H]1CN(C)C(=O)Nc1ccc(F)cc1,-0.6,-5.0,0.0757,7.0
COc1ccc(S(=O)(=O)Nc2cccc3c2O[C@@H](CN(C)Cc2ccc(Oc4ccccc4)cc2)[C@H](C)CN([C@H](C)CO)C3=O)cc1,0.5,-9.5,-0.814,-19.2
C[C@H]1CN([C@@H](C)CO)C(=O)Cc2cc(NS(=O)(=O)c3cccs3)ccc2O[C@H]1CN(C)S(=O)(=O)c1ccc(Cl)cc1,x,-1.1,-0.0526,-13.4
COc1ccc(-c2cc(=O)c3c(O)cc(O[C@H]4O[C@H](CO[C@@H]5O[C@@H](C)[C@H](O)[C@@H](O)[C@H]5O)[C@@H](O)[C@H](O)[C@H]4O)cc3o2)cc1,x,-11.0,0.0339,-53.3
CC1OC(OC2C(O)C(C)OC(OCC3OC(OC4C(C)OC(Oc5cc(O)c6c(=O)c(O)c(-c7ccc(O)c(O)c7)oc6c5)C(O)C4O)C(O)C(O)C3OC(=O)/C=C/c3ccc(O)cc3)C2O)C(O)C(O)C1O (stereo not given),1.8,2.9,-0.0349,-32.5
O=C(CN1C(=O)CSc2ccccc21)Nc1ccccc1C(=O)N1CCOCC1,1.5,14.8,x,x
O=C(CSc1nnnn1-c1ccccc1Cl)Nc1ccc(Br)cc1,1.1,10.4,x,x
C[C@@H]1CN([C@H](C)CO)C(=O)c2cccc(NC(=O)Nc3ccccc3)c2O[C@H]1CN(C)Cc1ccc(C(F)(F)F)cc1,x,46.1,-0.147,-6.7
C[C@@H]1CN([C@H](C)CO)C(=O)c2cc(NC(=O)CCN3CCOCC3)ccc2O[C@H]1CN(C)Cc1ccc(C(F)(F)F)cc1,x,-3.4,-0.143,11.2
CCn1cc(C(C)NC(=S)Nc2cccc([N+](=O)[O-])c2)c(C)n1 (stereo not given),1.4,-9.4,x,x
CN1CCN(S(=O)(=O)c2ccc(Br)cc2)CC1,-0.5,-17.6,-0.0227,-18.2
O=C(O)CCCc1nc2ccccc2s1,0.8,2.8,x,x
O=C(CSc1ncnc2sc3c(c12)CCCC3)Nc1ccc(F)c(Cl)c1,0.3,-21.0,x,x
C[C@@H]1CN([C@@H](C)CO)C(=O)c2cccc(NS(=O)(=O)c3cccs3)c2O[C@H]1CN(C)S(=O)(=O)c1ccccc1,1.3,1.0,-0.329,0.6
COc1ccc(NC(=O)Nc2cccc3c2O[C@H](CN(C)S(=O)(=O)c2ccccc2)[C@H](C)CN([C@@H](C)CO)C3=O)cc1,-1.9,-36.1,-0.156,-4.6
C[C@@H]1CN([C@@H](C)CO)C(=O)c2cc(NC(=O)NC3CCCCC3)ccc2O[C@@H]1CN(C)C(=O)NC1CCCCC1,0.3,-0.8,2.74,-1.8
C[C@H](CO)N1C[C@H](C)[C@H](CN(C)Cc2ccc(Cl)c(Cl)c2)Oc2c(NC(=O)c3nc4ccccc4s3)cccc2C1=O,-4.5,7.6,-0.125,-31.9
Cc1ccc(S(=O)(=O)Nc2ccc3c(c2)CC(=O)N([C@@H](C)CO)C[C@H](C)[C@H](CN(C)Cc2ccc(Oc4ccccc4)cc2)O3)cc1,3.3,9.7,-0.0866,28.4
O=c1onc(-c2ccccc2)n1-c1cccc(C(F)(F)F)c1,-0.2,3.5,-0.165,-1.5
COc1cc(Cc2cc(OC)c(C)cc2OC)c(OC)cc1C,4.1,11.5,0.406,29.7
CCOC(=O)c1c(NC(=O)CSc2nnc(C)s2)sc(C)c1C,0.3,-11.0,x,x
C[C@H](CO)N1C[C@H](C)[C@@H](CN(C)Cc2ccncc2)Oc2c(NC(=O)c3nc4ccccc4s3)cccc2C1=O,-4.6,11.2,-2.88,-25.2
C[C@H](CO)N1C[C@H](C)[C@H](CN(C)Cc2ccncc2)Oc2c(NC(=O)c3ccncc3)cccc2C1=O,x,-4.7,-0.045,-39.5
COc1ccc(S(=O)(=O)Nc2cccc3c2O[C@H](CN(C)S(C)(=O)=O)[C@H](C)CN([C@H](C)CO)C3=O)cc1,0.8,0.5,-0.388,-42.0
C[C@@H]1CCCCO[C@@H](CN(C)Cc2ccccc2)[C@@H](C)CN([C@H](C)CO)C(=O)c2cc(NC(=O)c3ccccc3)ccc2O1,-0.2,-1.4,0.0835,-15.1
Cc1ccc(S(=O)(=O)N(C)C[C@H]2Oc3c(NS(C)(=O)=O)cccc3C(=O)N([C@@H](C)CO)C[C@H]2C)cc1,-0.7,4.4,-0.171,-13.5

# Reprinted from the part before: five compounds; new compounds follow.
SMILES,PD-1 reverse act,MITF inhib,YB-1 expression,Shh pathway inh
C[C@H](CO)N1C[C@H](C)[C@@H](CN(C)Cc2ccncc2)Oc2c(NC(=O)c3nc4ccccc4s3)cccc2C1=O,-4.6,11.2,-2.88,-25.2
C[C@H](CO)N1C[C@H](C)[C@H](CN(C)Cc2ccncc2)Oc2c(NC(=O)c3ccncc3)cccc2C1=O,x,-4.7,-0.045,-39.5
COc1ccc(S(=O)(=O)Nc2cccc3c2O[C@H](CN(C)S(C)(=O)=O)[C@H](C)CN([C@H](C)CO)C3=O)cc1,0.8,0.5,-0.388,-42.0
C[C@@H]1CCCCO[C@@H](CN(C)Cc2ccccc2)[C@@H](C)CN([C@H](C)CO)C(=O)c2cc(NC(=O)c3ccccc3)ccc2O1,-0.2,-1.4,0.0835,-15.1
Cc1ccc(S(=O)(=O)N(C)C[C@H]2Oc3c(NS(C)(=O)=O)cccc3C(=O)N([C@@H](C)CO)C[C@H]2C)cc1,-0.7,4.4,-0.171,-13.5
C[C@@H]1CN([C@@H](C)CO)C(=O)c2cccc(N(C)C)c2O[C@H]1CN(C)Cc1ccc2c(c1)OCO2,0.5,-6.6,0.411,26.9
C[C@H](CO)N1C[C@H](C)[C@@H](CN(C)S(C)(=O)=O)Oc2ccc(NC(=O)CCN3CCOCC3)cc2C1=O,1.0,8.7,0.492,26.9
CCOC(=O)c1cc(CC)sc1N1C(=O)CC(Sc2ncccc2C(=O)O)C1=O (stereo not given),-0.5,-0.5,x,x
C[C@@H]1CN([C@H](C)CO)C(=O)c2cccc(NC(=O)c3ccncc3)c2O[C@H]1CN(C)Cc1ccc(Oc2ccccc2)cc1,-4.3,27.8,-0.21,u
C[C@H](CO)N1C[C@H](C)[C@H](CN(C)Cc2ccncc2)Oc2ccc(NC(=O)Nc3ccc(C(F)(F)F)cc3)cc2C1=O,-0.5,12.0,0.198,13.4
CNC[C@H]1Oc2ccc(NC(=O)Nc3ccccc3)cc2C(=O)N([C@@H](C)CO)C[C@@H]1C,-0.1,3.0,-0.274,x
COC(=O)c1c(NC(=O)CC2Nc3cccc4cccc(c34)NC2=O)sc2c1CCCC2 (stereo not given),-0.9,50.7,x,x
CCn1c(SCC(=O)Nc2ccc(Br)c(Cl)c2)nnc1-c1ccc(Cl)cc1,1.7,17.1,x,x
Cc1noc(C)c1S(=O)(=O)Nc1ccc2c(c1)CC(=O)N([C@H](C)CO)C[C@H](C)[C@H](CN(C)S(C)(=O)=O)O2,1.1,-7.8,-0.0528,10.5
C[C@H](CO)N1C[C@H](C)[C@H](CN(C)S(=O)(=O)c2ccc(Cl)cc2)Oc2ccc(NC(=O)Nc3ccc4c(c3)OCO4)cc2C1=O,-0.8,-9.3,-0.115,20.7
c1ccc(OCc2nc3c4c5c(sc4ncn3n2)CCCC5)cc1,4.5,-8.1,0.0741,34.0
C[C@@H]1CN([C@@H](C)CO)C(=O)Cc2cc(NC(=O)c3ccncc3)ccc2O[C@@H]1CN(C)Cc1ccc(-c2ccccc2)cc1,x,0.4,-0.235,u
C[C@@H]1CC[C@]2(C(=O)O)CC[C@]3(C)C(=CCC4[C@@]5(C)CC[C@H](O)[C@](C)(C(=O)O)C5CC[C@]43C)C2[C@]1(C)O (stereo not given in full),3.0,-0.6,-0.119,-18.2
Cc1noc(C)c1S(=O)(=O)Nc1ccc2c(c1)C(=O)N([C@@H](C)CO)C[C@@H](C)[C@H](CN(C)C)O2,1.0,-10.6,-0.0744,-25.8
CNC[C@@H]1Oc2ccc(NC(=O)NC3CCCCC3)cc2C(=O)N([C@H](C)CO)C[C@@H]1C,x,9.6,-0.264,x
CNc1cc2ncnc(Nc3cccc(Br)c3)c2cc1N,6.2,-5.0,-15,56.7
CS(=O)(=O)N(CC(=O)Nc1ccccc1Sc1ccccc1)c1cccc(C(F)(F)F)c1,0.5,23.3,x,x
Cc1ccc(S(=O)(=O)Nc2ccc3c(c2)C(=O)N([C@H](C)CO)C[C@H](C)[C@H](CN(C)C)OCCCC[C@@H](C)O3)cc1,0.6,-14.0,-0.279,-38.1
COc1ccc(S(=O)(=O)N(C)C[C@H]2Oc3ccc(NC(=O)c4ccncc4)cc3CC(=O)N([C@@H](C)CO)C[C@@H]2C)cc1,1.3,-15.5,-0.317,-7.2
C[C@@H]1CN([C@H](C)CO)C(=O)Cc2cc(NC(=O)CCC(F)(F)F)ccc2O[C@@H]1CN(C)CC1CC1,-0.5,-8.5,-0.138,x
C[C@@H]1CN([C@@H](C)CO)C(=O)c2cccc(NC(=O)Nc3ccc4c(c3)OCO4)c2O[C@@H]1CN(C)C(=O)Nc1ccc(C(F)(F)F)cc1,-0.6,-5.7,-0.00905,19.9
O=C(Cc1ccccc1[N+](=O)[O-])Nc1ccc(S(=O)(=O)N2CCCCC2)cc1,1.5,-3.6,x,x
C[C@@H]1CN([C@@H](C)CO)C(=O)c2cc(NC(=O)Nc3ccc4c(c3)OCO4)ccc2O[C@@H]1CN(C)Cc1ccc(C(=O)Nc2ccccc2N)cc1,-1.9,2.9,-0.226,x
C[C@H]1CN([C@@H](C)CO)C(=O)Cc2cc(NS(=O)(=O)c3cn(C)cn3)ccc2O[C@H]1CN(C)CC1CC1,1.9,-5.4,0.113,0.8
Cc1ccc(S(=O)(=O)NCC(=O)Nc2ccc(Br)cc2F)cc1,-0.3,-1.4,x,x
C[C@@H]1CCCCO[C@H](CN(C)S(=O)(=O)c2cn(C)cn2)[C@@H](C)CN([C@H](C)CO)C(=O)c2cc(NS(=O)(=O)c3cn(C)cn3)ccc2O1,x,-4.5,-0.18,-9.7
C[C@@H]1CCCCO[C@H](CN(C)C(=O)c2ccccc2)[C@@H](C)CN([C@H](C)CO)C(=O)c2cc(NS(C)(=O)=O)ccc2O1,1.5,-5.4,-0.0779,-5.3
